Assay outcomes as filed in PubChem BioAssay.
Sfp inh: Sfp phosphopantetheinyl transferase inhibition; Potency, µM, for inactives: max response, negative = inhibition, usual class: inhibitors; 310,000 compounds, 3.5% hits; Biochemical Sfp PPTase activity, qHTS; active means well fitted inhibition curve with a large enough effect; inconclusive means small, poorly fitted or top-dose-only effect, or another doubt; inactive means no such curve, though single readings can be large or run the other way;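 further: the enzyme is Sfp with the accession as filed and its product quenches rhodamine fluorescence; potency means the concentration at half of the fitted maximal effect; 0% = enzyme reaction without inhibitor and -100% = no enzyme wells; top concentration of the series not given in the record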
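Compounds were incubated with enzyme (final 15 nM) for 15 min at room temperature before substrate addition started the reaction. Fluorescence at 525 nm excitation, 598 nm emission was recorded immediately and after 30 minutes.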
PINK1 modulator: PINK1 expression modulation. PINK1 immunofluorescence, high-content cytometry, 24 h. Potency, µM (series often up to 76.6 µM), inactives show at the top dose activation (PINK1 increase), most hits filed as activators. 410,000 compounds, 0.2% hits. AID 624263; active = well fitted activation curve with a large enough effect; inconclusive = small, poorly fitted or top-dose-only effect; inactive = flat fitted curve, though single readings scatter; cell line not stated here;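 further: potency means the concentration at half of the fitted maximal effect; % of control where 0% means no effect; nearly all actives have a fitted effect of over 65% in size; a mitochondrial uncoupler was the plate control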
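PINK1 protein, normally rapidly degraded, was detected by immunofluorescence after 24 hour compound treatment of a stable cell line. Titration data (5 concentrations) came from laser-scanning cytometry, with CCCP-treated wells as controls.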
D2 ag: human D2 receptor agonism in beta-arrestin assay | P14416 | AID 624465 | DiscoveRx PathHunter D2 beta-arrestin, luminescence, 90 min; 100% = 57 uM dopamine signal | 360,000 compounds, 0.084% hits | activation, % (concentration not given with the values); in the data active = activation above about 40%; inconclusive = about 15% to 40%; inactive = below about 15%; further: the text of the record calls up to 30% inactive
Target sequence (P14416 whole entry, looked up): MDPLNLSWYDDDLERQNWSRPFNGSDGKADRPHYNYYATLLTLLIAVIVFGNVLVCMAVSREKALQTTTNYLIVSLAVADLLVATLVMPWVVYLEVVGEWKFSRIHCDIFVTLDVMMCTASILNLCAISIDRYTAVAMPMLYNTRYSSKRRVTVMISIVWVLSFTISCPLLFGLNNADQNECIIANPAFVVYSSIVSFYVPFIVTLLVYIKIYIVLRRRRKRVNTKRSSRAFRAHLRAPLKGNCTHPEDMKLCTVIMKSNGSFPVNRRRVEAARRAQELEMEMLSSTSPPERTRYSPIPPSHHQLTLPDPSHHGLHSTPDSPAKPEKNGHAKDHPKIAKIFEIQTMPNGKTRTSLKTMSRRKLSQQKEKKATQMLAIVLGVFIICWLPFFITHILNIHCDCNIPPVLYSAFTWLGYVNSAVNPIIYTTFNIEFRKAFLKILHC
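Agonist mode: compounds alone added to overnight-plated D2 PathHunter cells for 90 min at 37 C, with 57 uM final dopamine (EC100) defining full response. Beta-arrestin recruitment detected by chemiluminescent reagent, read after 1 h at ambient temperature.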
Menin MLL FP FL: displaces fluorescein MLL peptide from human menin; AID 1766; 290,000 tested, under 10 active; FP activity change, % at 61.4 µM; Fluorescence polarization, fluorescein-MLL peptide displacement from menin; inconclusive = falling polarisation curve, or a change in total fluorescence; inactive = total fluorescence flat and polarisation flat or rising; no compound was filed as active; the % refers to the polarisation; negative = inhibition;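 further: % of control where 0% means no effect; inhibitors lower the polarisation; unlabelled MLL peptide was the positive control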
ClpP mod: qHTS Assay for Activators of ClpP. ATP-dependent Clp protease proteolytic subunit (Bacillus subtilis (strain 168)), P80244. purified B. subtilis ClpP, FRET peptide cleavage, 20 min. Potency, µM (series often up to 57.5 µM), inactives show at the top dose activity change, negative = active. 340,000 compounds, 1.9% hits. AID 651965, 2013; active = well fitted falling curve with a large enough effect; inconclusive = small, poorly fitted or top-dose-only effect; inactive = no such curve, though single readings can be large or run the other way; further: potency means the concentration at half of the fitted maximal effect; the source files actives as falling curves though it sought activators and does not explain the sign; nearly all actives have a fitted effect of over 65% in size; many hits overshoot -100%
Target sequence (P80244 whole entry, looked up): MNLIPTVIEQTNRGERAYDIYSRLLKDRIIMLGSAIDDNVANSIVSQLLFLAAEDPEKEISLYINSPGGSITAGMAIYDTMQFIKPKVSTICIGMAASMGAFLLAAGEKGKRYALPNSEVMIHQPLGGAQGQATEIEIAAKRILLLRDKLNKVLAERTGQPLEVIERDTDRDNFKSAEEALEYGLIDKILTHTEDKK
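Buffer: 100 mM Tris/HCl pH8, 100 mM KCl, 0.05% low protease BSA, 2.5% glycerol, 0.01% Tween-20. ClpP 10 microg/mL final; 20 min RT; delta FRET normalized to ADEP and DMSO controls.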
gsp agonist: agonists of gsp mutant (McCune-Albright syndrome); gsp mutant cells, cAMP HTRF, 30 min; control for the full effect not named in the record; Potency, µM (series often up to 76.9 µM), inactives show at the highest dose activation (cAMP increase), actives largely listed as activators; 340,000 compounds, 0.13% hits; active = well fitted activation curve with a large enough effect; inconclusive = small, poorly fitted or top-dose-only effect, or another doubt; inactive = no such curve, though single readings can be large or run the other way; cell line not stated here;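 further: phosphodiesterase inhibitor Ro 20-1724 added with compounds to block cAMP breakdown; potency means the concentration at half of the fitted maximal effect; nearly all actives have a fitted effect of over 60% in size; about a fifth of the inactives were tested at one dose only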
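Cells in DMEM/10% FBS with G418 were pretreated with compounds in DMSO plus […] (300 uM stock) for 30 min at 37C. cAMP was measured by HTRF (cAMP-d2 plus anti-cAMP antibody-K) after 30 min at room temperature.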
gsp antag: antagonists of gsp mutant (McCune-Albright syndrome); gsp-mutant cells, cAMP HTRF, 30 min; control for the full effect not named in the record; Potency, µM (series often up to 76.9 µM), inactives show at the highest dose activity change, negative = inhibition, most hits filed as inhibitors; 340,000 compounds, 0.4% hits; active = falling curve of any shape with a large fitted effect; inconclusive = falling curve, mostly with a smaller effect; inactive = flat or rising curve; cell line not stated here;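 further: intracellular cAMP measured with PDE inhibitor Ro 20-1724 present during compound exposure; potency means the concentration at half of the fitted maximal effect; on the % scale 0 is the no-effect control and ±100 the full control effect; nearly all actives have a fitted effect of over 65% in size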
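HTRF cAMP read-out (cAMP-d2 plus anti-cAMP antibody-K in lysis buffer, 30 min RT). Before lysis, cells are exposed to compounds with […] for 30 min at 37C in DPBS containing Ca/Mg, BSA and Tween 20.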
* = called active by the depositor; u = inconclusive; x = no result given; [ ] = another dose, or the depositor's remark.

Under each structure: Sfp inh, PINK1 modulator, D2 ag, Menin MLL FP FL, ClpP mod, gsp agonist, gsp antag
- Cc1ccc(CSc2nnc(CCCCCNC(=O)OC(C)(C)C)o2)cc1
 : 9%, -0.5%, -1.7, 1.2, x, 0%[15.4 µM], -8%
- O=C(NNC(=O)C1[C@H]2CCCC[C@@H]12)Nc1cccc2ccccc12 (stereo partly drawn)
 : 23%, -1.0%, 7.2, 0.6, x, 23%, 1%
- COc1cc2c(cc1NC(=O)COC(=O)CNC(=O)c1ccccc1)oc1ccccc12
 : u, -1.3%, -0.5, -3.7, 1.2%, 4%[15.4 µM], -46%
- Cc1ccc(-n2c(SCC(=O)c3c(N)n(C4CC4)c(=O)[nH]c3=O)nnc2N2CCOCC2)cc1
 : x, -1.0%, 3.4, x, x, -1%[15.4 µM], 17%
- Cc1c(C(=O)NCc2ccc3c(c2)OCO3)oc2ccc(S(=O)(=O)N3CCCCCC3)cc12
 : -4%, 1.1%, 2.2, 6.2, -12%, 0%, -14%
- COc1ccc(-c2cc(C(=O)N/N=C(\C)c3ccco3)c3ccccc3n2)c(OC)c1
 : 14%, 4.4%, -0.2, -2.5, -3.5%, 36%, -9%
- Clc1ccc(CNCc2cccs2)c(Cl)c1
 : -6%, 6.3%, -5.1, 0.9, 1.2%, 6%, 11%
- COC(=O)c1ccc(N2CN=C(c3ccc(C)cc3)NC2=S)cc1
 : u, 6.5%, -1.0, 9.0, -0.2%, u, 0%
- CCC(C)N(NC(C)=O)c1nc(Cl)nc(NC(C)(C)C)n1 (stereo not drawn)
 : -5%, -2.1%, -1.4, 0.2, -1.3%, 8%, 6%
- COCCN(CCOC)S(=O)(=O)c1ccc(C(=O)Nc2c(C)n(C)n(-c3ccccc3)c2=O)cc1
 : 18%, -1.4%, -3.1, -5.8, x, -4%[15.4 µM], 0%
- CCOC(=O)C1=C(c2ccccc2)c2ccccc2N(S(=O)(=O)C(F)(F)F)C1C(=O)OCC (stereo not drawn)
 : x, -0.8%, -0.2, x, -8.9%, x, -4%
- CC1(C)CC(NS(=O)(=O)c2ccc(S(=O)(=O)N3CCOCC3)cc2)CCO1 (stereo not drawn)
 : 7%, -4.4%[38.3 µM], 0.0, 1.4, 0.8%, -29%, -12%
- COc1cnc(-c2ccccn2)nc1Sc1ccc(F)cc1
 : -5%, -0.2%, -10, 3.6, x, 1%[15.4 µM], 4%
- COc1ccc(C2SCCN2C(=S)Nc2ccc(F)cc2)cc1 (stereo not drawn)
 : -9%, 4.7%, -2.6, 2.5, 0.5%, -11%, 1%
- COc1ccccc1N(C)S(=O)(=O)c1ccc(C(=O)NC(C)c2ccccc2)cc1 (stereo not drawn)
 : 6%, 0.2%, -1.9, -0.6, -7.0%, 18%, -8%
- CN(CC(=O)Nc1cccc(F)c1)C(=O)C1CSC2(C)CCC(=O)N12 (stereo not drawn)
 : x, 0.0%, 0.3, x, -3.8%, 1%, 7%
- c1ccc(OCc2nn3c(-c4cccnc4)nnc3s2)cc1
 : -12%, 1.0%, -0.3, -1.7, 1.8%, u, 4%
- Cc1cc(C(=O)NNC(=O)Nc2ccc(Cl)cc2)no1
 : 13%, 2.4%, -0.8, 0.0, x, 9%[15.4 µM], 5%
- S=C(NCc1ccc(Cl)cc1)Nc1ccccc1Cl
 : 4%, -0.7%, 0.2, 5.5, 0.4%, -26%, -12%
- COC(=O)COc1cc2ccccc2cc1C(=O)Nc1ccccc1
 : 11%, 3.4%, -4.7, 2.5, -18%, -85%[inhibitor], -14%
- CC(C)COc1ccccc1C(=O)NC(CO)C(=O)O (stereo not drawn)
 : 12%, -3.3%, -1.9, 6.5, -0.5%, 1%, 12%
- CC(=NNC(=S)N1CCCC1)c1ccccn1
 : x, 1.7%, -15, x, -6.6%, u, x
- CC1CCC(NC(=O)c2cccc(S(=O)(=O)N3CCOCC3)c2)CC1 (stereo not drawn)
 : x, -0.4%, -1.4, x, 1.3%, -28%, x
- CCOC(=O)C1=CC[C@@H](c2ccccc2)N(S(=O)(=O)c2ccc(C)cc2)[C@H]1/C=C/c1ccccc1
 : x, 1.7%, -1.3, x, -2.7%, x, x
- CNC(=O)c1c(NC(=O)C(C)C)sc2c1CCC2
 : -5%, -1.3%, 1.0, 1.1, x, -14%[15.4 µM], 11%
- CN(C(=O)COC(=O)c1n[nH]c2ccccc12)c1ccccc1
 : 17%, -1.3%, -3.0, -1.2, x, u, 0%
- O=C(OCn1nnc2ccccc2c1=O)c1ccco1
 : 7%, 0.4%, -0.3, 4.9, -1.7%, -3%, 4%
- CCC/C=C1/CCCOC(C(=O)NCc2ccc(S(C)(=O)=O)cc2)(C(F)(F)F)C1 (stereo not drawn)
 : -6%, 0.4%, -1.9, 1.9, -1.0%, x, 3%
- CCNC(=S)N/N=C/c1ccc(C#N)cc1
 : 4%, -0.1%, 2.4, 0.1, x, -55%[inhibitor], 4%
- Cc1cccc(NC(=O)CC2NC3CCCCC3NC2=O)c1 (stereo not drawn)
 : -14%, 0.9%, -2.4, 1.1, 2.8%, 0%, -8%
- C[C@H](NC(=O)c1nc[nH]c1C(=O)N[C@@H](Cc1ccccc1)C(=O)OCc1ccccc1)C(=O)OCc1ccccc1
 : 2%, 2.1%, -3.5, 4.0, -1.3%, x, -15%
- Cc1ccc(NC(=O)C(C)c2ccc(-c3ccccc3)c(F)c2)c(C)c1 (stereo not drawn)
 : -14%, 8.0%, -0.5, -0.9, -0.4%, u, 6%
- O=C(Cn1nnc(-c2cccs2)n1)N1c2ccccc2Sc2ccc(C(F)(F)F)cc21
 : x, -0.7%, -3.4, x, -1.5%, -1%[15.4 µM], 4%
- CC(=O)Nc1ccc(Nc2ccc(S(=O)(=O)C(F)(F)F)cc2[N+](=O)[O-])cc1
 : -5%, 3.1%, 3.3, 2.7, 1.7%, -10%, -27%
- Cc1ccc2c(c1)S/C(=C/c1ccc[n+](CCO)c1)N2C
 : -1%, 4.0%, -1.4, 17, x, -1%[15.4 µM], -9%
- COc1c(O)ccc(/C=N/NC(=O)c2ccc3c(c2)OCCO3)c1[N+](=O)[O-]
 : 20%, 0.9%, -0.1, 3.2, x, 4%[15.4 µM], -12%
- COc1ccc(C(=O)CCC(=O)N2CCN(c3cccc(Cl)c3)CC2)cc1
 : -2%, -0.1%, 3.9, 9.1, -2.5%, u, 35µM*
- CC1(C)Cc2c(cnn2-c2ccc(F)cc2)C(NC(=O)Cn2cncn2)C1 (stereo not drawn)
 : 13%, 1.5%, -3.1, 0.1, 1.3%, 5%[15.4 µM], 9%
- CCOC(=O)[C@H]1[C@H]2COc3ccc(OC)cc3[C@@H]2N2C(=O)c3ccc(F)cc3NC(=O)[C@@]12C
 : x, -0.5%, -2.7, x, -1.5%, -28%, -4%
- O=C1Nc2ccccc2C1C(C[N+](=O)[O-])c1ccccc1 (stereo not drawn)
 : 11%, 1.4%, -0.2, -1.8, -0.9%, -15%[15.4 µM], 11%
- CCc1ccc(C(CNc2nc(C(F)(F)F)nc3ccccc23)N(C)C)cc1 (stereo not drawn)
 : -10%, 9.9%, 2.3, -1.7, x, -10%[15.4 µM], 1%
- COc1ccc(CN2CCCC(C(=O)N3CCCCC3)C2)cc1 (stereo not drawn)
 : -16%, 2.6%, 2.6, -9.2, 0.3%, -16%, 7%
- Cc1cc(OC(=O)C2CC2)c([N+](=O)[O-])c(=O)[nH]1
 : 18%, 4.6%, 6.4, 0.7, x, 1%, -1%
- CCc1ccc(OCC(=O)Nc2ccc3oc(=O)ccc3c2)cc1
 : 9%, 6.6%, -2.9, -0.1, x, 24%[15.4 µM], -7%
- COc1ccc(C(=O)N(CCN2CCOCC2)CC(=O)NC2CCCC2)cc1OC
 : 13%, 0.7%, -1.3, 5.5, -1.7%, u, -4%
- CN1CCN(S(=O)(=O)c2ccc(NC(=O)c3ccc(Br)o3)cc2)CC1
 : 7%, u, -2.4, 2.8, -0.6%, 27%, 12%
- COC(=O)c1ccc(Oc2nc(NC(C)C)nc(N(C)C)n2)cc1
 : 20%, 1.0%, -3.1, 1.1, 0.9%, 1%, -13%
- CS(=O)(=O)c1ccc(Cl)c(NC(=O)CN2CCN(S(=O)(=O)/C=C/c3ccccc3)CC2)c1
 : x, 2.0%, -1.3, x, -0.1%, -21%, -14%
- Cc1ccc(C2(C)NC(=O)N(CC(=O)NC(=O)NC(C)C)C2=O)cc1 (stereo not drawn)
 : 10%, 0.8%, 2.4, x, x, -39%[inhibitor], 9%
- COc1cccc(C(=O)Nc2cccc(-c3ccc(N4CCOCC4)nn3)c2)c1OC
 : x, -0.7%, -0.4, x, x, 20%[15.4 µM], u
- O=C(NCc1ccc2c(c1)OCO2)Oc1ccccc1
 : 10%, 0.5%, -5.6, 5.2, -1.0%, 5%, 0%
- O=C(C1CCCN(S(=O)(=O)c2cccc3cccnc23)C1)N1CCN(c2ccccc2F)CC1 (stereo not drawn)
 : -10%, -3.4%, -0.2, 3.8, -1.9%, -38%[inhibitor], -25%
- O=C(Nc1ccc2c(c1)OCO2)C1CCCN1C(=O)Nc1ccccc1F (stereo not drawn)
 : 4%, 4.3%[38.3 µM], -3.0, 5.3, -0.3%, -3%, 3%
- CCCCN1C(=O)C(=O)N(CC(=O)c2ccc3c(c2)OCO3)C1=O
 : x, 0.2%, -0.7, x, -26%, u, 7%
- Cc1cc(C)cc(NC(=O)Nc2cccc(S(N)(=O)=O)c2)c1
 : -18%, -0.2%, -0.5, 5.8, x, -2%[15.4 µM], -6%
- Cc1ccc(S(=O)(=O)N2CCN(C(=O)N(C)C)CC2)cc1
 : -1%, -0.6%, 4.0, 4.2, -2.8%, 4%, -1%
- Cc1ccc(-c2nnc(SCC(=O)NC3CCCC3)n2C)cc1
 : 15%, 13%, -1.3, -0.7, x, -5%[15.4 µM], 11%
- CCC1CCC(N2CCN(c3ccc([N+](=O)[O-])cc3)CC2)CC1 (stereo not drawn)
 : 2%, 27%, -2.9, -7.5, x, -37%[inhibitor], -14%
- CCNC(=O)C1(C)CCN1Cc1cc(-c2ccccc2)n(C)n1 (stereo not drawn)
 : x, -1.2%, -4.1, x, 0.5%, x, x
